Source: PubChem BioAssay
A1 inh – A1 inhibition; MEF A1-2A-BIM cells, caspase-Glo luminescence, 3 h; percent of clofoctol signal, DMSO as zero; caspase activation, % (concentration not given with the values); 21,000 tested, 0.51% active;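 active means most replicate scores above 10, or exactly half above 10 with mean activity above 10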;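 further: effector caspase 3 and 7 activity cleaving a DEVD luciferin substrate; 50 nL library stock added to about 30 µL; numbers are from one replicate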
BJeLR viability – compounds reducing viability of BJeLR cells; 30,000 tested, 0.64% active; viability loss activity score, % (no concentration beside the values); BJeLR fibroblasts viability, CellTiterGlo ATP luminescence, 48 h; HRASV12, hTERT and SV40 LT/ST transformed; AID 2275; in the data active means viability loss activity score above about 50%; about a fifth of its hits are not listed in these tables;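 further: higher score means fewer live cells and less ATP luminescence; stock transfer was 50 or 100 nL into about 30 µL; 0% = vehicle wells and 100% = a reference killing control; one replicate is shown; the record names a cut of 85%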
Active calls of the source: *; x = not tested or not shown.

The opening 11 records, to show the layout:
SMILES	A1 inh	BJeLR viability
C[C@H](CO)N1C[C@H](C)[C@H](CN(C)Cc2ccncc2)Oc2ccc(NC(=O)Nc3ccccc3)cc2C1=O	0.9	-0.7
CC(C)NC(=O)Nc1cccc2c1O[C@H](CN(C)C(=O)NC1CCCCC1)[C@H](C)CN([C@@H](C)CO)C2=O	x	-1.6
CCOC(=O)c1ccc2c(c1)N(C)C(=O)c1ccccc1S2	1.1	0.0
C[C@@H]1CN([C@@H](C)CO)C(=O)c2cccc(NC(=O)c3ccc(-c4nccs4)cc3)c2O[C@H]1CN(C)Cc1ccccc1	x	-4.6
Cc1ccc(S(=O)(=O)N(C)C[C@H]2Oc3c(NC(=O)C4CCOCC4)cccc3C(=O)N([C@@H](C)CO)C[C@H]2C)cc1	x	3.5
N#CCN(CC#N)C(=O)c1ccco1	0.7	-3.0
COC(=O)C(NC(=O)Cc1c(C)nc2c(-c3ccccc3)c(C)nn2c1C)C(C)C (stereo not given)	0.6	-0.4
O=C1CC(c2ccc(Cl)cc2)Nc2nc3ccccc3n21 (stereo not given)	x	1.6
CC(=O)Nc1ccc(NC(=O)CN(C)S(=O)(=O)c2ccc3nc(C)sc3c2)cc1	0.2	14
C[C@@H]1CN([C@H](C)CO)C(=O)c2cccc(NC(=O)Nc3ccc4c(c3)OCO4)c2O[C@@H]1CN(C)C(=O)Nc1ccc2c(c1)OCO2	x	-8.9
COc1ccc(CN(C)C[C@@H]2Oc3ccc(NC(=O)Nc4cccc5ccccc45)cc3C(=O)N([C@H](C)CO)C[C@H]2C)cc1	-0.1	-4.6

The listing, previewed entries included:
SMILES	A1 inh	BJeLR viability
C[C@H](CO)N1C[C@H](C)[C@H](CN(C)Cc2ccncc2)Oc2ccc(NC(=O)Nc3ccccc3)cc2C1=O	0.9	-0.7
CC(C)NC(=O)Nc1cccc2c1O[C@H](CN(C)C(=O)NC1CCCCC1)[C@H](C)CN([C@@H](C)CO)C2=O	x	-1.6
CCOC(=O)c1ccc2c(c1)N(C)C(=O)c1ccccc1S2	1.1	0.0
C[C@@H]1CN([C@@H](C)CO)C(=O)c2cccc(NC(=O)c3ccc(-c4nccs4)cc3)c2O[C@H]1CN(C)Cc1ccccc1	x	-4.6
Cc1ccc(S(=O)(=O)N(C)C[C@H]2Oc3c(NC(=O)C4CCOCC4)cccc3C(=O)N([C@@H](C)CO)C[C@H]2C)cc1	x	3.5
N#CCN(CC#N)C(=O)c1ccco1	0.7	-3.0
COC(=O)C(NC(=O)Cc1c(C)nc2c(-c3ccccc3)c(C)nn2c1C)C(C)C (stereo not given)	0.6	-0.4
O=C1CC(c2ccc(Cl)cc2)Nc2nc3ccccc3n21 (stereo not given)	x	1.6
CC(=O)Nc1ccc(NC(=O)CN(C)S(=O)(=O)c2ccc3nc(C)sc3c2)cc1	0.2	14
C[C@@H]1CN([C@H](C)CO)C(=O)c2cccc(NC(=O)Nc3ccc4c(c3)OCO4)c2O[C@@H]1CN(C)C(=O)Nc1ccc2c(c1)OCO2	x	-8.9
COc1ccc(CN(C)C[C@@H]2Oc3ccc(NC(=O)Nc4cccc5ccccc45)cc3C(=O)N([C@H](C)CO)C[C@H]2C)cc1	-0.1	-4.6
COc1ccc(S(=O)(=O)Nc2cccc3c2O[C@@H](CN(C)Cc2ccccc2)[C@H](C)CN([C@@H](C)CO)C3=O)cc1	x	-5.0
Cc1c(N(C)CS(=O)(=O)O)c(=O)n(-c2ccccc2)n1C	-0.5	3.6
Cc1ccc(C(=O)Nc2ccccc2)c(C)n1	x	-4.9
Cc1ccc(S(=O)(=O)Nc2ccc3c(c2)C(=O)N([C@H](C)CO)C[C@@H](C)[C@H](CN(C)Cc2ccc(-c4ccccc4)cc2)O3)cc1	-0.5	15
CCCN(CCC)C(=O)c1ccc(CNS(=O)(=O)c2ccc(F)cc2)cc1	0.0	2.0
C[C@H](CO)N1C[C@H](C)[C@H](CN(C)C(=O)Nc2cccc3ccccc23)Oc2c(NC(=O)Nc3cccc4ccccc34)cccc2C1=O	x	-4.9
CCc1ccc[n+](OC(=O)N(CC)CC)c1	-0.3	-0.4
COc1ccc(CN(C)C[C@@H]2Oc3c(NC(=O)c4ccncc4)cccc3C(=O)N([C@H](C)CO)C[C@H]2C)cc1	x	4.7
CCCCN(CC)C(=O)c1cc2cc3cc(OC)ccc3nc2s1	x	5.4
N/C(CS(=O)(=O)Cc1cccc(C(F)(F)F)c1)=N\O	0.6	2.3
CSc1cccc(NC(=O)c2cnn3ccccc23)c1	-7.1	6.1
COc1ccc(S(=O)(=O)Nc2ccc3c(c2)C(=O)N([C@H](C)CO)C[C@H](C)[C@@H](CN(C)S(=O)(=O)c2cccs2)O3)cc1	0.0	-0.2
C[C@@H]1CN([C@@H](C)CO)C(=O)c2cc(NC(=O)Cn3cnnn3)ccc2O[C@H]1CN(C)S(C)(=O)=O	0.1	0.4
C=CCn1c(SCc2ccccc2)nnc1-c1ccc2ncccc2c1	0.3	-2.4
CCC(C)NC(=O)c1cn(CCOC)c(=O)c2c1c1ccccc1n2C (stereo not given)	x	4.1
C[C@@H]1CN([C@@H](C)CO)C(=O)c2cccc(NS(=O)(=O)c3ccc(F)cc3)c2O[C@H]1CN(C)C(=O)NC1CCCCC1	x	-1.2
CN(C)N1C(=O)c2cccc3cccc(c23)C1=O	0.1	-0.6
O=c1sc2ccccc2n1Cc1nnc(SCc2ccccn2)n1-c1cccc(Cl)c1	0.7	-0.1
C[C@@H]1CN([C@@H](C)CO)C(=O)c2cc(NC(=O)Nc3ccc(C(F)(F)F)cc3)ccc2O[C@H]1CN(C)Cc1ccc(C(F)(F)F)cc1	0.2	3.9
CC(C)NC(=O)Nc1ccc2c(c1)C(=O)N([C@H](C)CO)C[C@@H](C)[C@@H](CN(C)Cc1ccc(Oc3ccccc3)cc1)O2	0.2	-0.3
CCN1C(=O)c2cccc3c(NC(=S)NC(=O)c4ccccc4)ccc1c23	12*	2.0
COc1ccc(S(=O)(=O)N(C)C[C@@H]2Oc3ccc(NS(=O)(=O)c4ccc(Cl)cc4)cc3C(=O)N([C@@H](C)CO)C[C@@H]2C)cc1	0.5	-2.6
O=C1C(C=NCCN2CCOCC2)=C(O)c2ccccc21	-2.0	2.0
C[C@H](CO)N1C[C@H](C)[C@@H](CN(C)Cc2ccc(Cl)c(Cl)c2)Oc2ccc(NC(=O)Cc3ccccc3)cc2C1=O	0.6	-0.3
N#CC1=C(N)Oc2c(sc3ccccc23)C1c1ccccc1OC(=O)c1ccccc1Cl (stereo not given)	1.0	8.6
COc1ccc(CN(C)C[C@@H]2Oc3c(NC(=O)C4CCCCC4)cccc3C(=O)N([C@@H](C)CO)C[C@@H]2C)cc1	x	1.7
COc1ccc(CN(C)C[C@H]2Oc3ccc(NC(=O)CCCCCC(=O)Nc4ccccc4N)cc3C(=O)N([C@H](C)CO)C[C@H]2C)cc1	x	-3.1
C[C@@H]1CN([C@H](C)CO)C(=O)c2cccc(NC(=O)c3nc4ccccc4s3)c2O[C@H]1CN(C)Cc1ccc(-c2ccccc2)cc1	x	-0.6
CCOc1ccc(-c2cc(C(=O)N3CCc4ccccc4C3)c3ccccc3n2)cc1	x	4.8
CC1OC(OC2C(O)C(CO)OC(O[C@H]3CC[C@@]4(C)C(CC[C@]5(C)C4CC=C4C6CC(C)(C)CC[C@]6(C(=O)OC6OCC(OC7OCC(O)C(O)C7O)C(O)C6O)CC[C@]45C)C3(C)C)C2O)C(O)C(OC2OCC(O)(CO)C2O)C1O (stereo not given in full)	9.1	-4.6
C[C@@H]1CN([C@H](C)CO)C(=O)c2cc(NC(=O)Cn3cnnn3)ccc2O[C@@H]1CN(C)CC1CCCCC1	-0.1	-2.4
Cc1cc(C(=O)Nc2cccc3c2O[C@H](CN(C)Cc2ccccc2)[C@H](C)CN([C@@H](C)CO)C3=O)n(C)n1	x	-1.9
Cc1noc(C)c1NC(=O)N(C)C[C@@H]1Oc2ccc(NS(=O)(=O)c3c(C)noc3C)cc2C(=O)N([C@H](C)CO)C[C@@H]1C	-0.1	1.6
C/C=C(/C)C(=O)O[C@@H]1C[C@@H](OC(=O)/C(C)=C\C)[C@](C)(CO)C2C3C(=O)C[C@@H](C)C2[C@]31C	-0.1	-3.4
COc1ccc(NC(=O)N(C)C[C@@H]2Oc3ccc(NS(=O)(=O)c4cn(C)cn4)cc3C(=O)N([C@H](C)CO)C[C@H]2C)cc1	0.3	1.5
Cc1c(C(=O)N2CCN(c3ccccc3F)CC2)sc2nc3n(c(=O)c12)CCCC3	0.2	-1.7
C[C@@H]1CN([C@H](C)CO)C(=O)c2cccc(NC(=O)c3nc4ccccc4s3)c2O[C@H]1CN(C)C(=O)Nc1ccccc1	x	2.3
C[C@H]1CN([C@@H](C)CO)C(=O)c2cccc(NC(=O)c3nc4ccccc4s3)c2O[C@@H]1CN(C)Cc1ccncc1	x	-1.3
C[C@@H]1CN([C@@H](C)CO)C(=O)c2cc(NS(=O)(=O)c3ccc(Cl)cc3)ccc2O[C@H]1CN(C)Cc1ccc(-c2ccccc2)cc1	-0.4	0.4
Cc1ccc(F)cc1N1C(=O)COCC1=O	x	-5.7
COC(=O)c1cn(-c2ccccc2)nc1-c1cccnc1	0.1	4.4
C[C@@H]1CN([C@H](C)CO)C(=O)c2cccc(NC(=O)C3CCCCC3)c2O[C@H]1CN(C)S(=O)(=O)c1cn(C)cn1	x	-2.6
CC(C)NC(=O)Nc1ccc2c(c1)C(=O)N([C@@H](C)CO)C[C@H](C)[C@H](CN(C)S(=O)(=O)c1cccs1)O2	0.5	-2.2
COc1ccc(CN(C)C[C@@H]2Oc3ccc(NC(=O)Nc4ccc(C(F)(F)F)cc4)cc3C(=O)N([C@@H](C)CO)C[C@H]2C)cc1	0.1	3.3
CC(=O)N(Cc1cccc(Br)c1)c1ccc2oc(-c3ccc(C)cc3)nc2c1	x	-3.7
CC(=O)O[C@@H]1CC2C(C)(C)C(=O)C3OC3[C@]2(C)C2CC[C@@]3(C)[C@H](c4ccoc4)OC(=O)C4OC43[C@@]21C (stereo not given in full)	-0.4	-0.5
CCOC(=O)c1cc(S(=O)(=O)NC(C)CC)cn1C (stereo not given)	0.2	-23
CC(C)NC(=O)Nc1ccc2c(c1)C(=O)N([C@@H](C)CO)C[C@H](C)[C@H](CN(C)S(=O)(=O)c1ccccc1)O2	0.3	2.7
C[C@@H]1CN([C@H](C)CO)C(=O)c2cccc(NC(=O)Nc3ccc4c(c3)OCO4)c2O[C@H]1CN(C)S(=O)(=O)c1cn(C)cn1	x	-1.1
Next structures follow:
SMILES	A1 inh	BJeLR viability
CCc1ccc(Nc2nc3cc(OC)ccc3cc2C#N)cc1	x	2.1
C[C@H]1CN([C@@H](C)CO)C(=O)c2cccc(NC(=O)Nc3ccc4c(c3)OCO4)c2O[C@H]1CN(C)S(C)(=O)=O	x	2.7
C[C@H]1CN([C@@H](C)CO)C(=O)c2cc(NC(=O)c3ccncc3)ccc2O[C@@H]1CN(C)C(=O)Nc1ccc(F)cc1	0.3	-1.3
COC(=O)c1ccc(S(=O)(=O)Nc2ccc(N3CCOCC3)cc2)n1C	-0.6	0.7
O=C(O)CC(NC(=O)Nc1ccccc1)c1ccsc1 (stereo not given)	0.4	-0.5
COC(=O)C1=CO[C@@H](O[C@@H]2O[C@H](CO)[C@@H](O)[C@H](O)[C@H]2O)C2C1CCC2(C)O (stereo not given in full)	-0.2	-9.8
CCCC1CCC(c2ccc(OC(=O)c3ccco3)cc2)CC1 (stereo not given)	-0.2	-1.0
O=C(NC(=O)c1ccc(F)c(Cl)c1)Nc1nnc(C(F)(F)F)s1	0.5	3.8
C[C@H](CO)N1C[C@H](C)[C@H](CN(C)Cc2ccc(C(=O)Nc3ccccc3N)cc2)Oc2ccc(NC(=O)Nc3ccc(C(F)(F)F)cc3)cc2C1=O	x	-2.9
Cc1cc(C)c2c(-n3cccc3)c(C(=O)N3CCC(C)CC3)sc2n1	0.3	2.4
Cc1cc(C(=O)NC2CCCC2)on1	x	2.9
Cc1cc(O)c2c(c1)C(=O)C13C(C2=O)C(=O)C2C(O)C1C1C(O)C3C(=O)C3C(=O)c4c(O)cc(C)cc4C(=O)C321 (stereo not given)	-0.4	-15
C[C@@H]1CN([C@H](C)CO)C(=O)c2cccc(NC(=O)c3nc4ccccc4s3)c2O[C@H]1CN(C)S(=O)(=O)c1ccc(F)cc1	x	1.2
CCCn1c(=N)c(C(=O)NC)cc2c(=O)n3cc(C)ccc3nc21	-0.6	-2.8
Cc1ccc(S(=O)(=O)Nc2ccc3c(c2)C(=O)N([C@@H](C)CO)C[C@H](C)[C@@H](CN(C)C(=O)Nc2ccc(C(F)(F)F)cc2)O3)cc1	0.2	-1.6
Cc1cc(C(=O)Nc2cccc3c2O[C@@H](CN(C)Cc2ccc(C(F)(F)F)cc2)[C@@H](C)CN([C@H](C)CO)C3=O)n(C)n1	x	-13
Cc1cc(OC(C)C(=O)Nc2sc3c(c2C(N)=O)CCCCCC3)ccc1Cl (stereo not given)	-5.6	35
c1ccc2[nH]c(CSCCC3CCCCC3)nc2c1	-2.3	5.5
O=C(CSc1nc2c(c(=O)n1-c1ccccc1)SCC2)N1CCCc2ccccc21	x	-5.1
Cc1cc(C(=O)Nc2cccc3c2O[C@@H](CN(C)S(=O)(=O)c2cccs2)[C@H](C)CN([C@H](C)CO)C3=O)n(C)n1	x	0.4
Cc1[nH]c2ccccc2c1/C=N/n1cnc2sc3c(c2c1=O)CCCC3	1.6	0.7
NS(=O)(=O)c1ccc(CCNC(=O)c2cccn3c(=O)c4cc5ccccc5cc4nc23)cc1	13*	9.7
C[C@@H]1CN([C@H](C)CO)C(=O)c2cccc(NC(=O)Nc3ccccc3)c2O[C@H]1CN(C)Cc1ccccc1	x	-0.3
CCCC(O)c1c(O)cccc1C1(O)CC(=O)C/C1=C\C(O)CC(=O)O (stereo not given)	0.2	-4.5

Not all compounds are listed; count on the stated rates, not on these rows.
